# Source: PubChem BioAssay
# S aureus helic = inhibitors of S. aureus replicative helicase, primary screen, biochemical, fluorescence unwinding readout. 120,000 compounds, 0.05% hits. inhibition, %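 (tested at about 80 µM)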. purified S. aureus helicase, fluorescence unwinding assay; about half of the hits fall short of the stated cut;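 active = both duplicates at 50% or more, or one of them with a favoured structure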;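 note: 0% = mean of negative control wells and 100% = mean of positive control wells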
# MgrA DNA FP = S. aureus MgrA activity modulators, primary screen, biochemical, S. aureus Newman, fluorescence polarization; MgrA-DNA binding; inhibition, %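 (about 10 µg/mL by stock and volumes)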; 84,000 compounds, 0.13% hits; AID 602314, 2012;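 active = above 50% in either of two replicates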;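 note: 0% = protein plus DNA without compound and 100% = DNA alone without protein; higher means less MgrA bound to DNA so lower polarization; one replicate is shown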
# An asterisk follows results filed as active; . = not tested or not shown.
# The first 17 entries (preview)
SMILES,S aureus helic,MgrA DNA FP
Cc1ccc(/C=N/N(C)S(=O)(=O)c2ccc(C)cc2)cc1,3,-0.8
COc1ccc(N2CC(NC(=O)N3CCCC3)CC2=O)cc1 (configuration not stated),6,.
C=CCn1c(SCc2nnc(SCc3ccc(F)cc3)n2C)nnc1-c1ccccc1,.,-0.2
Cc1cc(C)cc(N2C(=O)C=CC2=O)c1,.,-11
CCNc1nc(NC(C)C)nc(OCCNC(=O)Nc2ccc(Cl)cc2)n1,9,.
CCOC(=O)C1CCN(C(=O)c2cccnc2Oc2ccccc2)CC1,.,-0.7
COC(=O)C(F)c1nc2ccccc2c(=O)[nH]1 (configuration not stated),11,.
O=C1NN(c2ccc(Cl)c(Cl)c2)C(=O)/C1=C/C=C/c1ccco1,7,8.1
CCOC(=O)C(C)Sc1nc2c([nH]c3ccccc32)c(=O)n1-c1ccc(Cl)cc1 (configuration not stated),8,1.0
Cc1nn(-c2ccc(F)cc2)c(Cl)c1/C=C/C(=O)N1CCNC(=O)C1,-8,.
O=C(c1ccc2c(c1)CCO2)N1CCN(C(c2ccccc2)c2ccccc2)CC1,.,-0.2
CCOC(=O)C1C(=O)OC2(CCCC2)C1C(=O)OCC (configuration not stated),.,0.7
Brc1cc(Br)c2nc(-c3nccs3)ccc2c1,.,1.7
CCN1C(=O)c2ccccc2S(=O)(=O)c2ccc(C(=O)NCCCN3CCCCCC3)cc21,11,.
O=C1C=CC(=O)N1c1ccc(-c2ccccc2)cc1,.,7.8
CC(Sc1nncn1C)C(=O)NCCC1=CCCCC1 (configuration not stated),9,.
COC(=O)c1c(C)nsc1NC(=O)Oc1ccccc1,8,.

# The list itself, previewed entries included:
SMILES,S aureus helic,MgrA DNA FP
Cc1ccc(/C=N/N(C)S(=O)(=O)c2ccc(C)cc2)cc1,3,-0.8
COc1ccc(N2CC(NC(=O)N3CCCC3)CC2=O)cc1 (configuration not stated),6,.
C=CCn1c(SCc2nnc(SCc3ccc(F)cc3)n2C)nnc1-c1ccccc1,.,-0.2
Cc1cc(C)cc(N2C(=O)C=CC2=O)c1,.,-11
CCNc1nc(NC(C)C)nc(OCCNC(=O)Nc2ccc(Cl)cc2)n1,9,.
CCOC(=O)C1CCN(C(=O)c2cccnc2Oc2ccccc2)CC1,.,-0.7
COC(=O)C(F)c1nc2ccccc2c(=O)[nH]1 (configuration not stated),11,.
O=C1NN(c2ccc(Cl)c(Cl)c2)C(=O)/C1=C/C=C/c1ccco1,7,8.1
CCOC(=O)C(C)Sc1nc2c([nH]c3ccccc32)c(=O)n1-c1ccc(Cl)cc1 (configuration not stated),8,1.0
Cc1nn(-c2ccc(F)cc2)c(Cl)c1/C=C/C(=O)N1CCNC(=O)C1,-8,.
O=C(c1ccc2c(c1)CCO2)N1CCN(C(c2ccccc2)c2ccccc2)CC1,.,-0.2
CCOC(=O)C1C(=O)OC2(CCCC2)C1C(=O)OCC (configuration not stated),.,0.7
Brc1cc(Br)c2nc(-c3nccs3)ccc2c1,.,1.7
CCN1C(=O)c2ccccc2S(=O)(=O)c2ccc(C(=O)NCCCN3CCCCCC3)cc21,11,.
O=C1C=CC(=O)N1c1ccc(-c2ccccc2)cc1,.,7.8

# 3 compounds already listed, sorted by their value in S aureus helic, ascending.
SMILES,S aureus helic,MgrA DNA FP
Cc1nn(-c2ccc(F)cc2)c(Cl)c1/C=C/C(=O)N1CCNC(=O)C1,-8,.
O=C1NN(c2ccc(Cl)c(Cl)c2)C(=O)/C1=C/C=C/c1ccco1,7,8.1
CCOC(=O)C(C)Sc1nc2c([nH]c3ccccc32)c(=O)n1-c1ccc(Cl)cc1 (configuration not stated),8,1.0

# The list goes on.
SMILES,S aureus helic,MgrA DNA FP
CC(Sc1nncn1C)C(=O)NCCC1=CCCCC1 (configuration not stated),9,.
COC(=O)c1c(C)nsc1NC(=O)Oc1ccccc1,8,.
CC(=O)Nc1nc(C)c(Oc2ccc(Cl)cc2Cl)c(=O)[nH]1,.,2.3
CC(C)C(=O)Nc1nnc(SCc2cccc(F)c2)s1,-6,.
O=C([O-])C[n+]1cn(CC(=O)O)c2ccccc21,-9,0.8
N#CC(C#N)=C(C#N)c1cc2c([nH]1)CCCC2,-1,12
C#CCSc1nc(C(OC)OC)cc(=O)[nH]1,-29,.
CNC(=O)COC(=O)c1ccc(NC(=O)CC#N)cc1,-6,.
CN(C)/C=c1\s/c(=C/C(=O)c2cccs2)[nH]c1=O,.,-10
COCCn1c(SCC(=O)Nc2ccccc2)nc2ccccc21,7,.
O=C(NNc1ccccc1C(F)(F)F)C1CCCC1,-5,.
CCOC(=O)c1sc(SC)c2c1-c1ccccc1N(C)S2(=O)=O,.,-1.3
CC1=Nc2ccc(C)cc2/C1=C\c1c(N)n2nc(N3CCOCC3)sc2nc1=O,-37,.
Cc1ccc(/C=C/C(=O)O)cc1S(=O)(=O)N1CCC(C(=O)O)CC1,9,1.0
NC1CCC(c2ccccc2)CC1 (configuration not stated),4,-1.4
Cc1cc(C)c(NC(=O)CSc2nncn3c2cc2occc23)c(C)c1,-45,.
N#Cc1c(O)c(C=C2C=CC(=O)C=C2)n2ccccc12,-6,.
COc1cc2c(cc1OC)CN(C(C)C(=O)NC(C)(C#N)C(C)C)CC2 (configuration not stated),7,.
Cc1ccc(-c2csc3ncn(Cc4cc(=O)n5ccsc5n4)c(=O)c23)s1,24,.
CCOC(=O)N1CCC(c2nnc(-c3ccc(Cl)cc3Cl)o2)CC1,31,.
Cc1nc2ccc(-n3cccc3)cc2o1,.,-1.8
COc1ccc(-c2nnc(SCC#N)o2)cc1,2,0.4
CC(C)CCNC(=O)c1nnc(-c2ccccc2)o1,5,.
CC(C)n1[nH]c(=O)c2c1NC(=O)CSC21CCCCC1,15,-1.9
CCOC(=O)c1c(-c2ccccc2)oc2c1cc(OC(=O)c1ccc(S(=O)(=O)N(C)C)cc1)c1ccccc12,.,-0.4
CC(C)(C)C(=O)NCc1ccc(C(=O)CSc2nnc(-c3cccs3)n2C2CC2)s1,-7,.
CC1CCCN(CC(C)(C)N)C1 (configuration not stated),3,-0.6
CCOC(=O)[C@H](CCc1ccccc1)N[C@@H](C)C(=O)N1C(C(=O)O)C[C@@H]2CCC[C@@H]21 (some centres not stated),.,-1.0
O=[N+]([O-])c1ccc(Oc2ccccc2F)nc1,.,-0.5
CCOC(=O)C1CCCN(C(=S)Nc2cccc(Cl)c2)C1 (configuration not stated),7,1.8
O=C1CCCCCN1Cc1nnc(SCN2C(=O)c3ccccc3C2=O)n1-c1ccccn1,13,.
O=C(CCC(=O)N1CCOc2ccccc21)Nc1ccccc1Br,4,.
CCN(CC(=O)NCc1cccs1)C(=O)c1ccc(N2CCCC2=O)cc1,-11,.
CCC(C(=O)Nc1nc2nccc(C)n2n1)c1ccccc1 (configuration not stated),4,.
Cc1ccccc1NC(=S)N(CCC(C)C)C(C)c1ccncc1 (configuration not stated),12,-0.8
Cc1ccc(NC(=O)CC(C)S(=O)(=O)c2ccc3c(c2)SCC(=O)N3)cc1 (configuration not stated),-40,-5.0
CCCCc1ccc(N(C(C)=O)c2cc3c([nH]c4ccc(CCCC)cc43)c3c2C(=O)c2ccccc2C3=O)cc1,.,-1.1
CCCCNS(=O)(=O)c1ccc2c(c1)nc(C1CCN(S(=O)(=O)c3cccs3)CC1)n2CCCC,-17,.
COc1ccc2c(-c3cccnc3)cc(=O)[nH]c2c1,-4,.
Cc1cccc(OCc2nnc(SCCN3C(=O)c4ccccc4C3=O)o2)c1,2,.
Cc1nnc(SCCn2c(Br)nc3c2c(=O)[nH]c(=O)n3C)s1,5,.
CCc1c(C)c(C#N)c2nc3ccccc3n2c1NCCC(C)C,10,0.3
Cc1ccc(N2C(=O)CS/C2=C(/C#N)C(=O)NCC2CCCO2)cc1 (configuration not stated),1,.
COc1cc(C2NC(=O)N(C)C(C)=C2C(=O)OC2CCCCCC2)cc(Cl)c1O (configuration not stated),.,2.1
Cc1c(C(=O)Nc2ccccc2Br)oc2ccc(S(=O)(=O)N3CCCC3)cc12,6,-0.6
CC12C=CC(O1)C1C(=O)N(c3cc(C(F)(F)F)ccc3Cl)C(=O)C12 (configuration not stated),.,-4.4
CCOC(=O)Cn1cc(Cl)ccc1=O,0,.
C(=N\OCc1cccc(CO/N=C/c2ccco2)c1)/c1ccco1,9,.
CCOc1ccc(N=C2SC(C(=O)Nc3ccccc3)CC(=O)N2Cc2ccc3c(c2)OCO3)cc1 (configuration not stated),.,-0.1
O=C(Cn1ncc2c(=O)oc3ccccc3c21)Nc1ccccn1,16,.
CCOC(=O)/C(C#N)=N/Nc1sc(C(=O)OCC)c(C)c1C(=O)OCC,-10,.
CCC(=O)c1ccc(OCC(O)CN2CCOCC2)cc1 (configuration not stated),14,0.7
CCC1(C)CC(CC#N)(c2ccccc2OC)CCO1 (configuration not stated),23,.
O=C(O)CNC(=O)c1ccco1,3,-2.5
COC(=O)COc1cc2oc(=O)cc(-c3ccccc3)c2cc1Cl,19,.
CN(C)/C=C/C(=O)c1ccc(-c2cc(C(F)(F)F)n(C)n2)s1,.,-1.6
Cc1ccsc1C(=O)OCC(=O)N(C)c1ccccc1,6,-1.1
O=C(CC1SCCNC1=O)Nc1ccccc1 (configuration not stated),-4,1.4
c1ccc2c(c1)nc1n2CN(C2CCCCCC2)CN1,28,.
CC(NC(=O)c1ccc(-n2cccc2)cc1)c1ccccc1 (configuration not stated),5,.
# The list goes on.
SMILES,S aureus helic,MgrA DNA FP
Cc1cccc(C)c1OC(=O)C(C)N1C(=O)c2ccccc2C1=O (configuration not stated),-1,.
CC1(C)C2CC=C(/C=N/NC(=O)NC3CCCCC3)C1C2 (configuration not stated),-3,.
O=C(NCCN1C(=O)S/C(=C\c2ccc(Cl)cc2)C1=O)c1oc2ccccc2c1CSc1ncn[nH]1,12,.
O=C(c1cccs1)c1coc2c1cc(O)c1ccccc12,-5,6.7
CC(/C=C/c1ccccc1)NC(N)=O (configuration not stated),7,2.6
CN(C)c1nc(Oc2ccc(=O)n(C)n2)nc(N(C)C)n1,13,3.2
CCC(=O)NCCn1ccc2ccccc21,-2,.
Cc1cc(/C=C(\C#N)S(C)(=O)=O)c(C)n1-c1ccc(C(F)(F)F)cc1,.,-1.8
CC(C)(C)NC(=O)N1CCCN(c2ccc(C(F)(F)F)cn2)CC1,.,3.5
O=C(CSc1nncn1-c1ccccc1)NCC(F)(F)F,-7,.
O=C1CC2CCCC(CN1)N2CC(=O)NCc1ccco1 (configuration not stated),3,16
COC(=O)c1oc2c(c1C)C1(CCC2)SCCS1,-1,3.0
COc1ccc(C2(C#N)CCOCC2)cc1,3,-2.5
CN1CCCN(C(=O)c2ccc(Cl)cc2)CC1,-1,-2.4
C=CCN(C(=O)c1ccccc1SCC(=O)NCc1ccco1)c1nc2c(s1)CCCC2,-5,.
Cc1cc(C)n2nc(SCc3ccccc3C(=O)N3CCN(c4ccc(F)cc4)CC3)nc2n1,14,.
O=C(CN1C(=O)C2CC=CCC2C1=O)N1CCSC1=NCc1ccccc1 (configuration not stated),-2,.
C=CCNC(=O)CC1CCCCC1,-1,-1.1
CC(C(=O)Nc1ccccc1C#N)N(C)Cc1nc2ccccc2c(=O)[nH]1 (configuration not stated),-3,.
Cc1ccc2cccc(SC(=O)NCC3CCCO3)c2n1 (configuration not stated),2,-2.2
CCc1cc2c(SCC(=O)N(C)C3CCS(=O)(=O)C3)ncnc2s1 (configuration not stated),28,.
Cc1cc(C)c(C#N)c(SCC(=O)OC(C)C)n1,7,.
CCOC(=O)c1c(CNCc2ccccc2)n(-c2ccccc2)c2cc(Br)c(OC)cc12,.,2.9
Cc1ccccc1-n1nc(C)c2c(C(=O)NN)cc(-c3ccncc3)nc21,11,.
Cc1ccsc1C=Nc1ccc(C(N)=O)cc1,19,0.5
COc1ccc(Cn2c(SCC(=O)Nc3cccc(Cl)c3)nc3ncccc3c2=O)cc1,7,.
O=C(Nc1cccc2ccccc12)N1CCC(Nc2nc3ccccc3o2)CC1,-5,.
N#CC(Nc1ccc(C(F)(F)F)cc1)c1ccccc1 (configuration not stated),.,0.2
CN(C)c1ccc(/C=C(\C#N)c2ccc([N+](=O)[O-])cc2)cc1,.,-1.9
O=C1CC(c2ccco2)CC2=C1C(c1ccccc1)C1=C(N2)c2ccccc2C1=O (configuration not stated),-4,.
COC(CNC(=O)CN1CCN(Cc2ccc(C)cc2)C1=O)OC,17,.
CCOC(=O)c1cc(C#N)c(C)nc1N(CC)CC,.,0.7
CCOC(=O)/C(C#N)=C/c1ccc(-c2ccc(Cl)c(C(=O)OC)c2)o1,-15,6.0
CCn1c(CCC(=O)N2CCN(c3ccccn3)CC2)nc2cc(S(N)(=O)=O)ccc21,8,.
CC(C)C(NC(=O)c1cccs1)C(=O)NC1CCCCC1 (configuration not stated),1,-0.9
COc1cc2cc(C3CC(c4ccco4)=NN3C(C)=O)c(Cl)nc2cc1OC (configuration not stated),20,.
Cn1c(CSc2ccccc2)n[nH]c1=S,.,0.3
CC(C)c1c(Br)c(=O)oc2c3c4c(cc12)CCCN4CCC3,.,27
CCOC(=O)C1CCCN(C(=O)CSc2nc(N)c3ccccc3n2)C1 (configuration not stated),11,.
CC(=O)SCC(C)C(=O)Nc1ccccc1 (configuration not stated),-5,4.2
CC1CCN(CCCNC(=O)c2cc3c(=O)n(C)c4ccccc4c3s2)CC1,5,4.7
COc1ccc(CCN2C(=O)C=CC2=O)cc1,17,13
COc1ccc(-n2c(C(C)N3CCCCC3)n[nH]c2=S)cc1 (configuration not stated),-7,.
Cc1ccc(C=Nc2ccc(Br)cc2)cc1,14,-0.3
COc1cc(NC(=O)COc2ccc(F)cc2)nc(OC)n1,-6,1.4
CC1CCCC(NC(=O)CSc2ncn[nH]2)C1C (configuration not stated),-5,.
COc1cc2cc(CN(Cc3ccc4c(c3)OCO4)C(=O)NCc3ccccc3)c(=O)[nH]c2cc1OC,4,3.7
CN(C(=O)c1ccc2nccnc2c1)C1CCCCC1,.,0.4
CC(=O)Nc1nc(-c2ccccc2)c(C(=O)c2ccccc2)s1,14,.
CC(O)Cn1c(N(C)Cc2ccccc2)nc2c1c(=O)n(C)c(=O)n2C (configuration not stated),4,-0.2

# These rows are one share of the data; the hit share may differ from the screen's.
